# Screens deposited in PubChem BioAssay by National Center for Advancing Translational Sciences (NCATS).
# HPGD block: inhibitors of human 15-hydroxyprostaglandin dehydrogenase (HPGD); 150,000 tested, 4.3% active; Potency, µM, without a hit: at the highest dose activity change, negative = inhibition, actives largely listed as inhibitors; purified HPGD, NADH fluorescence kinetic, PGE2 substrate; P15428; active = well fitted inhibition curve with a large enough effect (not every such curve was filed as active); inconclusive = small, poorly fitted or top-dose-only effect, or another doubt; inactive = no such curve, though single readings can be large or run the other way;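 further: top concentration of the series not given in the record; plate controls included wells without enzyme; inactives centre near -10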
# Target sequence (P15428 whole entry, looked up): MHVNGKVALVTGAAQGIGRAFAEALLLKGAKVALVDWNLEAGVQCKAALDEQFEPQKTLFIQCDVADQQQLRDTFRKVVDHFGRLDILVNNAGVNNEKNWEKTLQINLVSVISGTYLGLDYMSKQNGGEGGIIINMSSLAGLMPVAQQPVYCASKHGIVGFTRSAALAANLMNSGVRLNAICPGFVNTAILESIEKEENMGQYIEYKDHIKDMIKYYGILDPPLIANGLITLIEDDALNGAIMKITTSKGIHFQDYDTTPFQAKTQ
#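 NADH formation kinetics: reaction with 30 uM PGE2 and 1 mM NAD+ (final), 20 nM enzyme, Tris-HCl pH 8 with Tween 20, after 15 min compound preincubation at room temperature. Fluorescence change, last versus first of five reads.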
# An asterisk follows results filed as active; u = inconclusive; & = joins results of further samples. On the % scale 0 is the no-effect control and ±100 the full control effect; potency means the concentration at half of the fitted maximal effect. An excerpt. The share of hits here may be higher or lower than overall.
SMILES,HPGD block
O=C(NCCCN1CCCCCC1)C1CC(=O)N(C2CCCC2)C1 (stereo unspecified),-16%
CCSc1nc(-c2ccc(OC)cc2)cc(-c2ccc(OC)cc2)c1C#N,u
COc1ccc(CC(=O)NCc2ccccc2)cc1S(=O)(=O)N1CCOCC1,-2%
CC1(C)CC(=O)C2=C(C1)N(c1cccc(Cl)c1)C(=O)NC2(C(F)(F)F)C(F)(F)F,-10%
CC(NC(=O)C1CCN(S(=O)(=O)c2cnc[nH]2)CC1)c1ccccc1 (stereo unspecified),-3%
CCCc1ncc(C(O)c2cccc3ccccc23)n1C (stereo unspecified),3%
COc1cccc(/C=N/N2C(=O)C3C4c5ccccc5C(c5ccccc54)C3C2=O)c1OC (stereo unspecified),-9%
CCOC(=O)c1c(/N=C/c2cc([N+](=O)[O-])ccc2O)sc(C)c1C,-11%
CCCc1cc(=O)n2[nH]c(NCc3c(Cl)cccc3Cl)nc2n1,-18%
Cc1ccccc1Nc1nc(N)nc(CN2CCN(c3ccccn3)CC2)n1,-4%
COc1cc(CNCCSc2nnnn2C)cc(OC)c1OC,-14%
O=C(Nc1nc(-c2ccccn2)cs1)c1ncc(Cl)c(Cl)c1Cl,-8%
Cc1ccc(-c2nnn(CC(=O)NCc3ccccc3)n2)c(-n2cnnn2)c1,-22%
CC1(CC(=O)N/N=C/c2ccc(-c3ccc(Cl)cc3)o2)OCCO1,u
O=C1NCCN1Cc1ccccc1,-8%
Cc1cccc(-n2nc3c(c2NC(=O)c2ccc(Br)o2)CSC3)c1,-1%
Cc1ccccc1C(OCCN(C)C)c1ccccc1 (stereo unspecified),-4%&-11%&-4%
CCCc1nnc(NC(=O)CN2CCOCC2)s1,-19%
O=C(CCc1ccc(S(=O)(=O)NCc2ccccc2)cc1)NCc1cccnc1,-9%
Cc1ccc(/C=C/C(=O)Nn2cnnc2)cc1,-1%
CC(=O)Nc1cccc(NC(=O)c2c(-c3ccccc3)noc2C)c1,0%
CCCNc1c(N)n(-c2ccccc2)c(=O)[nH]c1=O,-22%
O=C(Oc1ccccc1)c1c(Cl)cccc1P(=O)(O)O,-3%
COC(=O)Cn1c(=NC(=O)CN2C(=O)CCC2=O)sc2cc(S(N)(=O)=O)ccc21,-14%
CCOc1ccc(C2C(C#N)=C(N)N3C(=C2C#N)Sc2ccccc23)cc1 (stereo unspecified),-5%

# Grouped by structure, the compounds so far with an aryl thioether with sulfur outside any ring.
SMILES,HPGD block
CCSc1nc(-c2ccc(OC)cc2)cc(-c2ccc(OC)cc2)c1C#N,u
COc1cc(CNCCSc2nnnn2C)cc(OC)c1OC,-14%

# 5 compounds picked at random from those above:
SMILES,HPGD block
Cc1cccc(-n2nc3c(c2NC(=O)c2ccc(Br)o2)CSC3)c1,-1%
CCCNc1c(N)n(-c2ccccc2)c(=O)[nH]c1=O,-22%
CCOc1ccc(C2C(C#N)=C(N)N3C(=C2C#N)Sc2ccccc23)cc1 (stereo unspecified),-5%
CC1(C)CC(=O)C2=C(C1)N(c1cccc(Cl)c1)C(=O)NC2(C(F)(F)F)C(F)(F)F,-10%
COc1ccc(CC(=O)NCc2ccccc2)cc1S(=O)(=O)N1CCOCC1,-2%

# Carrying on.
SMILES,HPGD block
CS(=O)(=O)N(CCc1ccccc1)CC(=O)Nc1ccc2c(c1)OCO2,-11%
O=C(c1cccc(COCC(F)(F)C(F)F)c1)N1CCN(c2ccccc2)CC1,-11%
COc1ccc(-c2c(C(C)=O)c(C)nc3sc4c(=O)n(-c5ccc(C)cc5)nnc4c23)cc1,-20%
O=c1c2nnn(Cc3ccc(Cl)cc3)c2ncn1Cc1ccc(F)cc1,28µM*
Cn1c(=O)oc2cc(S(=O)(=O)N3CCN(c4ccccc4)CC3)ccc21,-14%
CCN[C@@H]1CN(CCCOC)S(=O)(=O)c2sc(S(N)(=O)=O)cc21,1%
O=C(COC(=O)/C=C/c1cccc(C(F)(F)F)c1)Nc1cccc2ccccc12,0%
O=C(NCc1ccco1)c1ccc(Cn2cc([N+](=O)[O-])cn2)o1,-14%
CCCCSc1nnc2c(n1)[nH]c1ccccc12,-2%
CC1=C(C(=O)OCc2ccccc2)C(c2ccco2)n2ncnc2N1 (stereo unspecified),-9%
Cn1c(SCC(=O)NCc2ccccc2)nnc1C1CC1,2%
COCCn1c(-c2ccc(OC)cc2)cnc1SCC(=O)Nc1cccc2ccccc12,u
CCN1C(=O)/C(=C/c2nc3ccccc3c(=O)n2-c2ccc(C)cc2)c2ccccc21,-4%
Cc1cc(C(=O)OCc2nnc(-c3ccccc3)o2)c(C)n1-c1ccccc1,u
O=C(Cc1nc(-c2ccc(Br)s2)cs1)NCCN1CCOCC1,-15%
Cc1cc(NC(=O)c2ccco2)ccc1-n1cnnn1,0%
Cn1c(CSc2nc3ccccc3s2)n[nH]c1=S,-28%
Cc1cccc(Nc2n[nH]c(=S)s2)c1C,10µM*
CC1CCC2(CC1)N=C(N)Nc1nc3ccccc3n12 (stereo unspecified),-6%
CCCn1c(SCC(=O)Nc2cc(S(=O)(=O)N3CCOCC3)ccc2Cl)n[nH]c1=O,-6%
Cc1nn2c(-c3ccco3)nnc2c2ccccc12,0%
O=c1c2ccccc2nc2c3ccccc3c(NCCN3CCOCC3)nn12,u
CCOC(=O)c1ccc(COC(=O)c2cc3ccccc3oc2=O)o1,-17%
CCC(=O)Nc1cc(C(=O)OC(C(=O)c2ccc(C)c(C)c2)c2ccccc2)ccc1C (stereo unspecified),-10%
OC[C@H]1O[C@@H](OC[C@H]2O[C@@H](O)[C@H](O)[C@@H](O)[C@@H]2O)[C@H](O)[C@@H](O)[C@@H]1O,-1%
SMILES,HPGD block
Cc1cc(NCCO)c2ccccc2n1,-7%
O=C(NCCN1C(=O)S/C(=C\c2cccs2)C1=O)c1ccc(=O)[nH]c1,-13%
O=C(CSc1nnc(Cn2nnc3ccccc32)o1)Nc1cccc(Cl)c1,-4%
Cc1nc2nc[nH]n2c(=O)c1NC(=O)c1cccc(OCC(C)C)c1,-16%
CCn1c(SCC(=O)Nc2ccccc2C)nnc1-c1ccccc1O,-7%
CCCC(=O)Nc1ccc(Sc2ccc([N+](=O)[O-])cc2)cc1,18µM*
COc1ccccc1CC(=O)Nc1ccccc1O,-26%
CCCN1CCN(CCCNC(=O)C2CCCN(c3nnc(-n4cccc4)s3)C2)CC1 (stereo unspecified),-9%
Cn1nnc(NC(=O)CSc2nnnn2-c2ccc(F)cc2)n1,3%
CC(=O)NC(CC(C)C)C(=O)NC(=O)NCc1ccccc1 (stereo unspecified),-1%
CC1CCN(C(=O)C2CC(c3ccc(F)cc3)=NO2)CC1 (stereo unspecified),-27%
CCOc1ccccc1C(=O)OCC(=O)Nc1ccc(OC(F)F)cc1,-11%
COc1ccc(-c2c(C)oc3c(CN4CCN(C)CC4)c(O)ccc3c2=O)cc1,u
CCCCCCc1cc2cc(C(=O)NCc3ccccc3)c(=N)oc2cc1O,u
CC1CCCCC1NS(=O)(=O)c1ccc(S(=O)(=O)N2CCCC2)cc1 (stereo unspecified),-5%
CC(=O)c1c(O)c(C)c(O)c2c1OC1=CC(=O)C(C(C)=O)C(=O)[C@@]12C (stereo partly specified),-3%
C/C(=N\NC(=O)CC(C)C)c1ccc(N2CCCCC2)cc1,-19%
FC(F)(F)c1cc(-c2ccccc2)nc(NCc2cccnc2)n1,-19%
O=C(NCCCn1ccnc1)Nc1cccc2ccccc12,-21%
COC(=O)CCC(=O)OC1(C)C(=O)C=C2C=C(C3CC3)N(Cc3ccc4c(c3)OCO4)C=C2C1=O (stereo unspecified),-8%
S=C(NN=C1CCCCCC1)Nc1ccc(Cl)cc1,-9%
C[C@]12CCC3c4ccc(OCC(=O)O)cc4CCC3C1CCC2=O (stereo partly specified),-1%
C=CCn1cc(C(=O)N2CCc3ccccc3C2)c(=O)c2cc(S(=O)(=O)N(CC)CC)ccc21,-19%
Cc1onc(-c2ccccc2)c1C(=O)NC(CC(=O)O)c1ccc(OC(C)C)cc1 (stereo unspecified),1%
COC(=O)CSc1nnc(C)n1-c1cccc(C#N)c1,-6%
SMILES,HPGD block
O=c1nc(N2CCOCC2)ccn1-c1nc(-c2ccccc2)oc1-c1ccccc1,-17%
COc1ccc(N2CC(C(=O)Nc3ncccc3C)CC2=O)cc1 (stereo unspecified),-5%
CSc1nc(C)cc(OCC#N)n1,-6%
COC(=O)c1ccc(/C=C2/SC(=S)N(CCCC(=O)Nc3ccccn3)C2=O)cc1,-19%
O=C(Cc1nnc(NC(=O)Nc2ccc(Cl)cc2)s1)NCc1ccccc1,3%
Cc1ccc(Nc2nc(N/N=C/c3c[nH]c4ccccc34)nc(N3CCOCC3)n2)cc1,-23%
O=C(OC1CCOC1=O)c1cc(-c2ccc(Cl)cc2)nc2ccccc12 (stereo unspecified),u
Cc1ccc(S(=O)(=O)N(CC(=O)Nc2ccccc2C(=O)O)c2cccc(Cl)c2C)cc1,-15%
CCOC(=O)c1ccccc1NC(=O)N[C@@H](C)C(=O)OC,u
Cc1cc(Cl)ccc1N1C(=O)CC(SCCC(=O)O)C1=O (stereo unspecified),4%
O=C(CCn1cccc1)Nc1cc(F)ccc1F,-14%
CCCCSc1nnc2[nH]c(=O)cc(N)n12,16µM*
CC(C)OC(=O)C(C#N)c1nc2ccccc2nc1N1CCN(Cc2ccccc2)CC1 (stereo unspecified),-9%
CCc1nccn1S(=O)(=O)c1ccc2ccccc2c1,-2%
COc1ccc(-n2c(=O)c3c4c(sc3n3c(=S)[nH]nc23)CCCC4)cc1,-29%
CC(C(=O)O)N1C(=O)c2ccccc2C1=O (stereo unspecified),3%
CCN(CC)S(=O)(=O)c1csc(C(=O)Nc2ccccn2)c1,-5%
O=C(N/N=C/c1cn(-c2cccs2)nc1-c1ccccc1)c1ccc(O)cc1,u
COc1ccc(-c2cc(=O)oc3cc(OCc4nn[nH]n4)ccc23)cc1,u
Cc1cc(N)n(-c2nc(-c3cccnc3)nc3ccccc23)n1,-3%
C/C(=N\NC(=O)c1c(Br)c(C)nn1C)c1ccc(NC(=O)C(C)Oc2ccc(Cl)cc2C)cc1 (stereo unspecified),-13%
Cc1cc(Nc2cccc(F)c2)n2c(n1)nc1ccccc12,-13%
CCOC(=O)c1c(/N=C/c2cc(C)ccc2O)sc2c1CCC2,-17%
Cc1nc2c(F)c(F)c(C(F)(F)F)c(F)c2[nH]1,-12%
O=C(COc1ccc(Cl)cc1Cl)OCC(=O)N1CCCc2ccccc21,-7%

# Compounds from the list above containing a CF3 group:
SMILES,HPGD block
CC1(C)CC(=O)C2=C(C1)N(c1cccc(Cl)c1)C(=O)NC2(C(F)(F)F)C(F)(F)F,-10%
O=C(COC(=O)/C=C/c1cccc(C(F)(F)F)c1)Nc1cccc2ccccc12,0%
FC(F)(F)c1cc(-c2ccccc2)nc(NCc2cccnc2)n1,-19%
Cc1nc2c(F)c(F)c(C(F)(F)F)c(F)c2[nH]1,-12%

# Back to the main list, starting three compounds before the break.
SMILES,HPGD block
CCOC(=O)c1c(/N=C/c2cc(C)ccc2O)sc2c1CCC2,-17%
Cc1nc2c(F)c(F)c(C(F)(F)F)c(F)c2[nH]1,-12%
O=C(COc1ccc(Cl)cc1Cl)OCC(=O)N1CCCc2ccccc21,-7%
CC(C)c1cc[n+](-c2nc([O-])sc2C=O)cc1,-14%
N#Cc1c(N)nc2c(c1N)CC(=O)N2c1ccc(Cl)cc1,-4%
O=C(CSc1nc2ncccc2[nH]1)c1ccc(F)cc1,-26%
CCOC(=O)Nc1nnc(/C=C/c2ccc(OC)cc2)s1,u
Cc1ccc(S(=O)(=O)Nc2cccc3ncccc23)s1,28µM*
O=C(Nc1nc(-c2ccc3c(c2)OCCO3)cs1)c1ccc(S(=O)(=O)N2CCCCC2)cc1,-19%
Cc1nc2ncnn2c(N2CCN(c3cccc(C(F)(F)F)c3)CC2)c1C,-29%
O=C1C2C(c3ccccc3)C=CC(c3ccccc3)C2C(=O)N1c1ccncc1 (stereo unspecified),-5%
O=C1c2ccccc2C(Nc2ccc(Cl)cc2)N1CCN1CCOCC1 (stereo unspecified),-8%
Cc1ccc(N2CC(C(=O)Nc3cc(C)on3)CC2=O)cc1 (stereo unspecified),-8%
O=C(C(Cc1ccccc1)N1C(=O)c2ccccc2C1=O)N1CCc2ccccc21 (stereo unspecified),-8%
Cc1ccc(C(=O)NC(N2CCCC2)C(Cl)(Cl)Cl)cc1 (stereo unspecified),u
c1nc(NC2CCCCCC2)c2[nH]cnc2n1,-14%
O=C1C2C3C=CC(C3)C2C(=O)N1c1ccc2c(c1)CCC2 (stereo unspecified),-15%
O=C(COC(=O)c1n[nH]c2ccccc12)NC(=O)NC12CC3CC(CC(C3)C1)C2,-11%
CS(=O)(=O)N1CCN(c2ccc(NC(=O)c3cccnc3Cl)cc2)CC1,-13%
CCCC(O)(CCN1CCCCC1)c1ccc(OCC)cc1 (stereo unspecified),-2%
CCCCC(=O)NC(c1ccco1)c1c(O)ccc2ccccc12 (stereo unspecified),u
O=C(NN=C1CCCC1)NC1CCCCC1,-9%
OC1(CN2CCOCC2)C2CN3CCN(C2)CC1(c1ccccc1)C3 (stereo unspecified),-16%
CCOc1cccc(NC(=O)C2CCCN(S(=O)(=O)c3ccc(-n4cnnn4)cc3)C2)c1 (stereo unspecified),-8%
COc1cc2oc(=O)cc(-c3ccc(-c4cccc(N)c4)cc3)c2c(OC)c1OC,-23%
NS(=O)(=O)c1ccc(CCNC(=O)c2ccccc2[N+](=O)[O-])cc1,-5%
